Bioassay records deposited in PubChem BioAssay by ICCB-Longwood Screening Facility, Harvard Medical School.
PV pol inh: poliovirus RNA polymerase inhibition; poliovirus polymerase elongation, fluorescence polarization; active compounds read low; % elongation, % (compound at 16.7 µg/mL); 150,000 tested, 0.66% active; AID 588519; in the data active means % elongation below about 90%; further: some results filed as inactive read as strong as hits
Target sequence (P03300 1749-2209 limits assumed): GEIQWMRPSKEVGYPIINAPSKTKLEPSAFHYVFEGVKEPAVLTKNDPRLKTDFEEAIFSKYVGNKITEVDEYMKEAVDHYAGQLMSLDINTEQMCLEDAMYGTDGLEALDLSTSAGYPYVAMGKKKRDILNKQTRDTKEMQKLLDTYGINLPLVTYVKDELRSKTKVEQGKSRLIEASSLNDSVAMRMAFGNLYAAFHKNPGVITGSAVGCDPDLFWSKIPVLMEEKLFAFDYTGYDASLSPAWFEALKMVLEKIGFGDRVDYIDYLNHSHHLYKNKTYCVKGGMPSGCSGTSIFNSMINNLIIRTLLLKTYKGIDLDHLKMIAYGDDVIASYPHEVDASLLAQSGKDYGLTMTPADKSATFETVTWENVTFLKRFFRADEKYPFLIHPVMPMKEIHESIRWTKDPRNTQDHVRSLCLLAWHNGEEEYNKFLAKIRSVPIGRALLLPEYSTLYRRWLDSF
PV pol inh intensity: second read-out of PV pol inh, no call of its own (marks repeat the call); % elongation; measured here: total intensity read-out; formula for this scale not given here;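 total fluorescence in place of polarization; lower means less elongation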
* = called active by the depositor.

Under each structure – PV pol inh	PV pol inh intensity
Cc1ccc(CNC(=O)c2ccc(NC(=O)N3CCSc4ncccc43)cc2)cc1
    96.0	100.0
Cc1cc(C)n2nc(SCC(=O)Nc3cccc(C(F)(F)F)c3)nc2n1
    103.0	105.0
CCCCN(C)S(=O)(=O)c1cc(-c2cc(C)no2)ccc1C
    96.0	101.0
COc1ccccc1NC(=O)C1=C(C)Nc2c(C(=O)Nc3cccc(C)c3)cnn2C1c1ccccc1Cl (stereo not given)
    108.0	112.0
CC(C)(C)OC(=O)N1CCC(c2c(C(=O)NCCN3CCC(Cc4ccccc4)CC3)cnn2-c2ccc(F)cc2)CC1
    110.0	110.0
O=C(Cn1ncc2c3ccccc3n(Cc3ccccc3F)c2c1=O)NCCCc1ccccc1
    108.0	111.0
COc1ccc(NC(=O)C2CCN(S(=O)(=O)c3c(C)noc3/C=C/c3ccco3)CC2)cc1
    102.0	101.0
CCCCc1c(C)nc2c(-c3ccc(Cl)cc3)c(C)[nH]n2c1=O
    102.0	108.0
Cc1c(Cl)cccc1NC(=O)CCn1nc(C)c2c(C)n(-c3ccccc3)nc2c1=O
    110.0	117.0
COc1ccc(NC(=O)c2nnn(Cc3nc(-c4cc(OC)c(OC)c(OC)c4)oc3C)c2C)cc1
    103.0	106.0
O=C(Cn1c(=O)n(Cc2ccco2)c(=O)c2sc3ccccc3c21)Nc1ccccc1C(F)(F)F
    107.0	110.0
Cc1ccc(N(CC(=O)Nc2ccc(C)c(Cl)c2)S(=O)(=O)c2cccs2)cc1
    89.0*	88.0*
COc1ccc(NC(=O)CCCN2C(=O)C(c3ccccc3)Oc3cccnc32)c(OC)c1 (stereo not given)
    99.0	100.0
CC(=O)c1ccc(NC(=O)CN(C)S(=O)(=O)c2cc3c(cc2Cl)NC(=O)CO3)cc1
    117.0	114.0
CCCCn1c(=O)c2oc3ccccc3c2n(CC(=O)Nc2cc(C)ccc2C)c1=O
    110.0	108.0
COc1cccc(CCNC(=O)c2c(O)nc3ccccn3c2=O)c1
    114.0	116.0
CC(C)Oc1ccc(CNC(=O)CCCn2c(=O)c3cccn3c3cccnc32)cc1
    106.0	99.0
O=C(Cn1nnc(-c2ccc(C(F)(F)F)cc2)n1)NCCc1ccccc1
    107.0	112.0
COc1ccccc1NC(=O)c1sc2nc(C)c(C(=O)Nc3ccc(C)cc3C)c(-c3ccc(Br)cc3)c2c1N
    106.0	111.0
Cc1ccc(Cl)cc1NC(=O)C(C)n1nnc2sc3c(c2c1=O)CCCC3 (stereo not given)
    104.0	103.0
O=C(Nc1nnc2n1CCS2)c1ccccc1C(F)(F)F
    105.0	109.0
CCc1ccc(-n2c(=O)c3cccnc3n2CC(=O)NCc2ccc(C)cc2)cc1
    112.0	112.0
O=C(CC(c1cccs1)N1Cc2ccccc2C1=O)Nc1ccccc1 (stereo not given)
    103.0	107.0
Cc1cccc(-c2nc3nc(C)cc(N4CCN(c5ccccc5)CC4)n3n2)c1
    104.0	108.0
CCOc1ccc(Br)cc1S(=O)(=O)Nc1cccc(-c2ccc(OC)nn2)c1
    99.0	104.0
C=Cc1ccc(Cn2ccn(-c3ccc(F)c(F)c3)c(=O)c2=O)cc1
    112.0	103.0
O=S(=O)(Nc1ccc(-c2ccc(N3CCCC3)nn2)cc1)c1ccccc1Cl
    104.0	113.0
CC(C)CN1CCc2nc(Nc3ccc(F)cc3F)ncc2C1
    97.0	93.0
CCCCOC(=O)c1ccc(NC(=O)c2cc(-c3cccs3)on2)cc1
    102.0	104.0
Cc1ccc(NC(=O)c2c(C)nc3sc(C(=O)Nc4ccc(F)cc4)c(N)c3c2-c2ccc(C)o2)c(C)c1
    113.0	123.0
COc1ccccc1CNC(=O)C1CCN(c2nnc(C)c3c(C)n(-c4ccccc4)nc23)CC1
    108.0	115.0
CCCCNc1nc2c(S(=O)(=O)c3ccc(Cl)cc3)nnn2c2ccsc12
    108.0	110.0
CC(C)Cn1c(=O)c2sccc2n2c(CCCC(=O)NCCc3ccc(Cl)cc3)nnc12
    108.0	110.0
COc1ccc(NC(=O)CCCSc2nc(-c3ccco3)cc(C(F)(F)F)n2)cc1
    105.0	104.0
CCSC1=NC2(CCN(C(=O)NC3CCCCC3)CC2)N=C1c1ccc(OC)cc1
    105.0	99.0
Cc1ccc(C2C=C(c3ccc(Cl)cc3)Nc3nc(NC(=O)c4ccco4)nn32)cc1 (stereo not given)
    104.0	162.0
O=C(CCCCn1c(=O)c2ccccc2n(Cc2cccc(F)c2)c1=O)NCCc1ccccc1
    104.0	105.0
CCOc1ccc(C(=O)Nc2onc3c2CCCC3)cc1
    108.0	112.0
Cc1nc2nc(NCc3ccccc3Cl)[nH]n2c(=O)c1Cc1ccccc1
    114.0	113.0
COc1ccc(NC(=O)c2nnn(Cc3ccc(Br)cc3F)c2N)c(OC)c1
    103.0	102.0
COc1ccc(NS(=O)(=O)c2ccc3c(c2)CC(C)N3C(C)=O)c(OC)c1 (stereo not given)
    108.0	111.0
Cc1ccc(C)c(NC(=O)CN2C(=O)CCc3ccccc32)c1
    98.0	104.0
O=C(NCCc1ccc(Cl)cc1)c1ccc2nc(Cc3ccccc3)oc2c1
    112.0	117.0
COc1ccc(OCCn2c(C(C)Oc3ccccc3)nc3ccccc32)cc1 (stereo not given)
    114.0	110.0
CC(=O)c1ccc(NS(=O)(=O)c2c(C)nc3scc(C)n3c2=O)cc1
    105.0	105.0
Cc1ccc(S(=O)(=O)Nc2nc3n(n2)C(c2ccc(Cl)cc2)C=C(c2ccccc2)N3)cc1 (stereo not given)
    94.0	286.0
COCCNC(=O)CCc1nc2cccnc2n1Cc1ccc(OC)cc1
    101.0	103.0
CC12CN3CC(C)(CN(C1)C3c1ccc(OCc3ccccc3)cc1)C2=O (stereo not given)
    111.0	107.0
COc1ccc(NC(=O)c2oc3ccccc3c2NC(=O)Cc2cccs2)c(OC)c1
    110.0	107.0
COC(=O)c1ccc(NC(=O)CC2C(=O)N(c3cccc(C)c3)C(=O)N2Cc2ccco2)cc1 (stereo not given)
    115.0	108.0
Cc1cccc(-c2nc3c4ccccc4nc(NCc4ccc(F)cc4)n3n2)c1
    105.0	102.0
CCC(C(=O)NCc1ccccc1Cl)n1c(=O)c2cccn2c2ccccc21 (stereo not given)
    109.0	111.0
COc1ccc(Cl)cc1NC(=O)Cn1c(=O)n(Cc2ccco2)c(=O)c2cccnc21
    103.0	107.0
Cc1cccc(-c2nc3c(cnn3-c3ccccc3)c(=O)n2-c2cccc(Cl)c2)c1
    103.0	103.0
Cc1cccc(C)c1OCC(=O)Nc1nc(-c2ccc(Br)cc2)ns1
    109.0	103.0
COc1ccc(-c2ccc3c(N)c(C(=O)NCc4ccc(C)cc4)sc3n2)cc1
    108.0	108.0
CCN(CC)c1ccc(NS(=O)(=O)c2cc(-c3onc(C)c3C)ccc2OC)c(C)c1
    110.0	105.0
Cc1ccc(NC(=O)CC2Sc3ccccc3NC2=O)c(Br)c1 (stereo not given)
    106.0	108.0
CCc1ccc(NC(=O)c2ccc(CN3C(=O)C(C)=C(c4ccc(C)cc4)S3(=O)=O)cc2)cc1
    107.0	107.0
CCC(=O)OCc1cnc(C)c2oc(=O)c(C(=O)Nc3ccccc3C(F)(F)F)cc12
    110.0	110.0

The results go on:
Under each structure – PV pol inh	PV pol inh intensity
CCCNC(=O)CSc1nc2nc(C)c(Cc3ccccc3Cl)c(C)n2n1
    105.0	106.0
Cc1cccc(N2CCN(C(=O)Nc3cn(CC(C)C)c(=O)c4ccccc34)CC2)c1C
    98.0	99.0
Cc1ccc(C)n1-c1nnc(N2CCCC(C(=O)Nc3ccc(C(C)C)cc3)C2)s1 (stereo not given)
    104.0	105.0
CNS(=O)(=O)c1cc(-c2nn3c(C)nnc3c3ccccc23)ccc1C
    105.0	107.0
CCOC(=O)c1sc2cccc(F)c2c1S(=O)(=O)NCc1ccccc1Cl
    109.0	98.0
CCOC(=O)c1c(NC(=O)c2cc(C(C)C)on2)sc(C(C)=O)c1C
    98.0	95.0
O=C(NCC(c1cccnc1)N1CCc2ccccc2C1)C(=O)Nc1ccccc1 (stereo not given)
    109.0	114.0
Cc1ccc(-n2c(C)nc3c(cnn3-c3ccccc3)c2=O)cc1
    82.0*	77.0*
Cc1ccc(-c2nc(CCNC(=O)C(=O)Nc3c(C)cccc3C)cs2)cc1
    119.0	111.0
Cc1cc(C)cc(NC(=O)Cn2cc(C(=O)c3cccs3)c3ccccc32)c1
    101.0	103.0
COc1ccc(-n2nc(C(=O)N3CCN(c4cccc(C(F)(F)F)c4)CC3)c3c4ccccc4n(C)c3c2=O)cc1Cl
    112.0	108.0
Cc1ccc(N2CCN(C(=O)CCc3c(C)nc4ncnn4c3C)CC2)c(C)c1
    104.0	105.0
Cc1ccc(Nc2sc(C(=O)c3ccccc3)c(N)c2C(N)=O)cc1
    110.0	94.0
COc1ccc(CCNc2nc(-c3ccc(F)cc3)cc(C(F)(F)F)n2)cc1OC
    104.0	100.0
COc1ccc(CNC(=O)Cn2c(=O)n3nc(-c4cccc(F)c4)nc3c3ccccc32)cc1OC
    109.0	110.0
COc1ccc(CN(C(=O)Nc2ccccc2)c2ccccn2)cc1OC
    109.0	105.0
CCN1C(=O)c2ccccc2S(=O)(=O)c2ccc(C(=O)NCc3ccc(OC)cc3)cc21
    102.0	105.0
CCOC(=O)N1CCc2c(sc(NCc3cccc(F)c3)c2C(=O)Nc2ccc(OC)cc2OC)C1
    102.0	102.0
Fc1ccccc1Cc1cn2cc(-c3ccc(Cl)cc3)nc2s1
    104.0	110.0
Cc1ccc(NC(=O)C2=CC(c3ccc4c(c3)OCO4)=NS(=O)(=O)N2C)cc1
    115.0	106.0
CC(=O)OCc1cc(=O)n2nc(C3CCCCC3)sc2n1
    104.0	100.0
CCOC(=O)c1ccc(NC(=O)Cn2cnc3sc(C(=O)OCC)c(C)c3c2=O)cc1
    109.0	106.0
Cc1cc(C)c(S(=O)(=O)Nc2cccc(-c3cn4ccccc4n3)c2)c(C)c1
    102.0	90.0
CCOc1ccc(-c2nonc2NC(=O)c2oc3cc(C)ccc3c2C)cc1
    106.0	108.0
CSc1nc(C)cc(Nc2c(C)cc(C)cc2C)n1
    110.0	114.0
Cc1cc(C)cc(-n2c(SCC(=O)NCC3CCCO3)nc3c([nH]c4ccccc43)c2=O)c1 (stereo not given)
    108.0	110.0
Cc1cc(C)c(NC(=O)C2CCN(S(=O)(=O)c3c(C)noc3/C=C/c3ccccc3F)CC2)c(C)c1
    105.0	109.0
CCN(CC)c1ccc(NC(=O)c2cc(C)nc3c2c(C)nn3-c2ccc(C)cc2)c(C)c1
    103.0	106.0
Cc1ccc(S(=O)(=O)N2CCc3cc(C(=O)NCCc4ccccc4)ccc32)cc1
    100.0	91.0
CC(C)OCCCNC(=O)CN1C(=O)c2ccccc2Sc2ncccc21
    113.0	113.0

Record cards, from the list above. Screens in order: PV pol inh | PV pol inh intensity
CCN1C(=O)c2ccccc2S(=O)(=O)c2ccc(C(=O)NCc3ccc(OC)cc3)cc21 across the screens: 102.0 | 105.0
Cc1cc(C)c(S(=O)(=O)Nc2cccc(-c3cn4ccccc4n3)c2)c(C)c1 across the screens: 102.0 | 90.0
Fc1ccccc1Cc1cn2cc(-c3ccc(Cl)cc3)nc2s1 across the screens: 104.0 | 110.0
CCN(CC)c1ccc(NC(=O)c2cc(C)nc3c2c(C)nn3-c2ccc(C)cc2)c(C)c1 across the screens: 103.0 | 106.0

Following part
Under each structure – PV pol inh	PV pol inh intensity
COc1cccc(NC(=O)CSC2=Nc3ccccc3C3=NC(CC(=O)NCc4ccccc4OC)C(=O)N23)c1 (stereo not given)
    106.0	100.0
Cc1nnc(NC(=O)CSc2nccn2Cc2ccc(Cl)cc2)s1
    112.0	98.0
CCc1ccccc1N(C)C(=O)c1cc2c(s1)-c1c(C)cccc1OC2
    106.0	114.0
COCCCNC(=O)c1cc2c(=O)oc3ccc(C)cc3c2s1
    105.0	105.0
Cc1cn2c(=O)cc(COC(=O)c3ccc(NC(=O)C(C)Oc4ccccc4)cc3)nc2s1 (stereo not given)
    120.0	109.0
Cc1ccn2c(Nc3ccc4c(c3)OCO4)c(-c3ccc(Cl)cc3)nc2c1
    106.0	109.0
COc1cc2c(=O)n(Cc3ccccc3Cl)c(=O)n(CC(=O)Nc3ccccc3)c2cc1OC
    108.0	109.0
CCc1nn(CC(=O)Nc2ccc(C)cc2C)c(=O)c2cc3sccc3n12
    107.0	110.0
CCc1nn2c(=O)cc(COC(=O)c3cccc(NC(=O)c4cccs4)c3)nc2s1
    107.0	107.0
CC1CCCCN1C(=O)Cn1c(=O)n(-c2ccc(Cl)cc2)c(=O)c2c3c(sc21)CCC3 (stereo not given)
    102.0	100.0
COc1ccc(-c2cccc(NS(=O)(=O)c3ccc(NC(C)=O)cc3)c2)nn1
    104.0	107.0
COc1ccc(Cl)cc1S(=O)(=O)N1CCN(Cc2cccc(F)c2)CC1
    105.0	104.0
COc1ccc(OCCCn2c(C)nc3cc(C)c(C)cc32)cc1
    110.0	106.0
COc1ccc(CCNC(=O)c2ccc3c(Cl)c4c(nc3c2)CCCC4)cc1OC
    106.0	111.0
CCn1c(C(=O)Nc2cc(Cl)ccc2C)cc2sc(Cl)cc21
    114.0	114.0
COc1cccc(CNC(=O)c2nn(C)c3c2CS(=O)(=O)c2ccccc2-3)c1
    110.0	114.0
COCCn1c(C)cc(O)c(C(c2ccccc2)N2CCCCC2)c1=O (stereo not given)
    105.0	107.0
CCC(C)NC(=O)C1CCC(CNS(=O)(=O)c2ccc(Cl)cc2)CC1 (stereo not given)
    105.0	109.0
CCN(CC)CCOC(=O)c1ccc(NC(=O)CCn2c(=O)oc3ccccc32)cc1
    103.0	107.0
COc1ccccc1NC(=O)C1=C(C)Nc2nc(-c3ccco3)nn2C1c1cccc(C)c1 (stereo not given)
    106.0	107.0
CCN(CC)CCNC(=O)C(=O)NCC(c1cccnc1)N1CCN(c2ccccc2)CC1 (stereo not given)
    108.0	97.0

The list is partial, so the mix of outcomes need not match the whole.
